FGF22 binding = binders of recombinant human FGF22 by thermal shift | SYPRO orange fluorescence; percent of sucrose octasulfate shift, DMSO zero | calls only at 9.99 µM | 340,000 tested, 1.5% active;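 active = melting point raised past a set limit in the mean and every replicate; inconclusive = no clear call; three in four hits are not shown here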
Target sequence (Q9HCT0 whole entry, looked up): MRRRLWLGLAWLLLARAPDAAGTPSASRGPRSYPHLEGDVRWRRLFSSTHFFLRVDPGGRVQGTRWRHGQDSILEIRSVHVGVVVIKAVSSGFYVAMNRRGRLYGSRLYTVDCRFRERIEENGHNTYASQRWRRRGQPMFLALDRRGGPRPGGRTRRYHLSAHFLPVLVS
rRNA inh HTS = inhibitors of bacterial rRNA selective over humanized ribosomes. 350,000 tested, 1.6% active. GFP signal change (wild-type ribosome), % (concentration not given with the values). E. coli WT GFP vs humanized-ribosome RFP mutants, fluorescence, 24 h; stronger effect = lower value; DMSO median 0, no signal -100;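 active = significant combined selectivity score with lowered wild-type GFP, culture density cut under 30%, mutant RFP and density less affected; inactive = any of these conditions unmet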; note: one replicate is shown; some compounds called inactive have numbers as strong as hits
HNF4A DNA FP = change in binding of human HNF4 alpha to DNA; activity change, % at 10 µM; 360,000 tested, 0.3% active; P41235; HNF4a-FITC DNA binding, fluorescence polarization, 1 h; in the data active = activity change above about 30%, passing the limit was not always enough;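 note: controls were the assay level and a saturating level of protein; the project sought stronger binding though the title names inhibitors; some compounds called inactive have numbers as strong as hits; positive values seem to mean higher polarization but the record does not say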
Target sequence (P41235 whole entry, looked up): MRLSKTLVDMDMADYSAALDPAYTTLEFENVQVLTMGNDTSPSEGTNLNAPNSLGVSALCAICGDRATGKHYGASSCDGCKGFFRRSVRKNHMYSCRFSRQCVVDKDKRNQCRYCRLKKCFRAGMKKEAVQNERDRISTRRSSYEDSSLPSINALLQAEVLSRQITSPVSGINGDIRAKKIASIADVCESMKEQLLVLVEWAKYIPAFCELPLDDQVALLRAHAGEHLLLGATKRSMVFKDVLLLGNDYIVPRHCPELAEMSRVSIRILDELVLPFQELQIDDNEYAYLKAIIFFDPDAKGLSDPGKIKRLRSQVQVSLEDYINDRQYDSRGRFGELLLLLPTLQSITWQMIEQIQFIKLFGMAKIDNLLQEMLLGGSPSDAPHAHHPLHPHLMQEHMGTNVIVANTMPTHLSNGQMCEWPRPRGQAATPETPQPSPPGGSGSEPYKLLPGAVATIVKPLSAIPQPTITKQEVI
Vif A3G = inhibitors of Vif binding to APOBEC3G peptide, primary screen, biochemical, TR-FRET, GST-Vif 1-94, biotin-A3G peptide, dose response retest (AID 1117319) | inhibition, %, or IC50 in µM where a hit was titrated | TR-FRET GST-Vif / biotin-A3G peptide binding; higher % means a stronger effect; test concentration not given here; strong numbers were not always called active | 260,000 tested, 0.57% active;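 active = above the screen mean plus three standard deviations and confirmed in dose response; inconclusive = results disagree or hit not tested in dose response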;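 note: Vif residues 1-94 fused to GST binding biotinylated APOBEC3G peptide 110-148; 0% = full assay without inhibitor and 100% = GST in place of GST-Vif; retest series ran down from 100 µM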
Ecoli growth = inhibitors of Escherichia coli growth; OD600, 23 h; stronger effect = lower value; OD600 absorbance (no concentration beside the values); 330,000 tested, 0.21% active; AID 1053175;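 active = OD600 absorbance below the run mean of sample wells minus 3.6 SD, in any replicate, cut at about 0.56 in these data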;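 note: stock transfer was 300 nL into about 60 µL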
AF4-AF9 inh = inhibitors of human MLL-AF4/AF9 interaction; P42568; AlphaScreen, biotin-AF4 peptide binding to FLAG-AF9; inhibition, % at 10 µM; 350,000 tested, 0.47% active; AID 651704;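 active = every replicate reaching a set inhibition limit, whatever the replicate mean, cut at about 25% in these data; inconclusive = mean inhibition reaches that limit but some replicates miss it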;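 note: 0% = plate neutral control median and 100% = total signal loss; the record names both 10 and 1 µM as test concentration; the first replicate is given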
ALR inh = human ALR oxidase inhibition via reduced H2O2 | P55789 | purified ALR, DTT oxidation, H2O2 HRP-luminol luminescence | inhibition, % (no concentration beside the values) | 290,000 tested, 3.8% active | AID 485317;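 active = mean and each replicate at 75% or more; inconclusive = only one of the two met; inactive = neither met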;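 note: stock transfer was 7.5 nL into about 7.5 µL; 0% = neutral wells and 100% = wells with inactivated enzyme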
Target sequence (P55789 whole entry, looked up): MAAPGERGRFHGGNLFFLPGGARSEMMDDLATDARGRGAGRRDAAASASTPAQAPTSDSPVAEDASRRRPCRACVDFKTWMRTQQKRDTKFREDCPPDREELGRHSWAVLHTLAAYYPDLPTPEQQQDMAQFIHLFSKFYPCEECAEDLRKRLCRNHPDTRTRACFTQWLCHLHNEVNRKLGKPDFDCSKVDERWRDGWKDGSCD
rRNA inh HTS OD600 = second read-out of rRNA inh HTS, no call of its own (marks repeat the call); OD600 change, %; measured here: OD600 growth;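 optical density of the mix in the first replicate; 0 = DMSO median and -100 = no signal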
rRNA inh HTS RFP = also measured in rRNA inh HTS; calls as there; RFP signal change, %; measured here: RFP humanized mutant strains;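 first replicate; 0 = DMSO median and -100 = no signal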
* marks the source's active call; other numbers are inactive results; i = inactive; ? = inconclusive; . = no result given; + = active, no number. A portion of the library; the hit share may differ from the screen's.

FGF22 binding | rRNA inh HTS | rRNA inh HTS OD600 | rRNA inh HTS RFP | HNF4A DNA FP | Vif A3G | Ecoli growth | AF4-AF9 inh | ALR inh | SMILES
i | 0.9 | 11.3 | 2.0 | . | . | . | -19.6 | . | O=C(C[C@H]1CC[C@@H]2[C@H](COC[C@H](O)CN2C(=O)c2ccc(F)cc2)O1)NCCCN1CCOCC1
i | 1.4 | -4.3 | -2.5 | . | . | . | -1.6 | . | C[C@@H]1CN([C@@H](C)CO)C(=O)Cc2cc(NS(=O)(=O)c3ccccc3)ccc2O[C@@H]1CN(C)C(=O)NC1CCCCC1
i | 15.9 | 16.1 | -1.3 | -22.8 | 28.2% | 0.629 | 2.6 | -8.0 | O=c1c(O)c(-c2cccs2)oc2ccc(Cl)cc12
. | . | . | . | 6.0 | 12.5% | 0.744 | . | . | COc1ccc(-c2nnc(SCC(=O)c3ccc[nH]3)n2-c2ccccc2)cc1
i | 2.8 | -4.9 | 0.2 | 0.4 | . | 0.625 | 1.3 | 0.5 | Cc1cccc(C(C(=O)NCc2ccc(F)cc2)N(C(=O)c2csnn2)C2CC2)c1 (stereo not drawn)
i | 5.3 | -2.3 | -0.5 | -10.4 | 10.1% | 0.688 | -1.6 | -13.0 | COc1ccccc1CNC(=O)/C=C/C(=O)O
. | . | . | . | -2.2 | 2.9% | . | . | -2.8 | C=C(C)C1CCC(C)=C1COC(=O)Nc1ccccc1 (stereo not drawn)
i | 3.3 | 15.2 | 1.8 | . | . | . | -3.1 | . | C[C@@H]1CN([C@@H](C)CO)C(=O)c2cc(Br)cnc2O[C@@H]1CN(C)C(=O)CN1CCOCC1
i | 7.2 | 6.2 | 3.0 | 0.5 | . | 0.648 | 0.7 | -3.5 | COc1ccc(NC(=O)C(=O)c2cn(CC(=O)N3CCCC3)c3ccccc23)c(OC)c1
i | 1.0 | 3.7 | -6.8 | 0.2 | 22.3% | 0.692 | -6.8 | 99.0* | Cn1c(SCC(=O)Nc2ccc3[nH]c(=O)[nH]c3c2)nnc1-c1ccc(F)cc1
i | -3.1 | -8.8 | 1.6 | . | . | . | 3.3 | . | C[C@@H]1CN([C@@H](C)CO)C(=O)c2cc(NC(=O)Cc3cn(C)c4ccccc34)ccc2O[C@H]1CN(C)Cc1ccncc1
+ | 5.4 | 6.1 | -2.3 | . | . | . | 7.7 | . | CNC[C@H]1Oc2ccc(NC(=O)Cc3cn(C)c4ccccc34)cc2C(=O)N([C@H](C)CO)C[C@H]1C
. | . | . | . | -1.2 | 0.8% | 0.738 | . | -7.2 | O=C(CC12CC3CC(CC(C3)C1)C2)NCC(=O)N1CCc2ccccc2C1
i | 19.2 | 7.9 | 3.8 | 0.9 | ? | 0.638 | 1.3 | 99.1* | O=C(NN=C1CCC(=NNC(=O)c2cccnc2)CC1)c1cccnc1
. | . | . | . | -0.4 | -2.2% | 0.75 | . | 0.2 | CCCCOc1ccccc1Cn1c(=O)oc2ccccc21
i | 3.0 | 11.3 | -15.1 | -6.4 | . | 0.712 | -3.6 | 91.3* | C=CCn1c(SCC(=O)c2ccc(O)c(O)c2)nnc1-c1ccc(OC)cc1
i | 11.1 | 5.6 | -5.6 | . | . | 0.676 | -1.1 | . | CC(C)N(C(=O)Cn1c(SCC(=O)N2CCN(c3ccccc3)CC2)nc2ccccc21)C(C)C
i | 23.6 | 10.0 | 0.3 | 6.3 | 24.3% | 0.655 | -0.6 | -1.4 | CC(=O)Nc1cccc(OCCCNC(=O)C2CCC2)c1
i | 2.6 | 11.1 | -2.1 | 0.0 | . | 0.642 | -15.2 | . | CN1CCN(C(=O)c2cnn(-c3ccccc3)c2NC(=O)c2ccc([N+](=O)[O-])cc2)CC1
i | 11.4 | 11.9 | -1.5 | -3.8 | 17.9% | 0.781 | -9.2 | -1.8 | CCC(C)NC(=O)CC1Oc2ccc(C)cc2NC1=O (stereo not drawn)
i | -2.4 | -1.1 | -1.0 | . | . | . | -0.3 | . | O=C(C[C@@H]1CC[C@@H](NC(=O)C2CC2)[C@H](CO)O1)NCc1ccccc1Cl
. | . | . | . | -0.8 | 4.5% | 0.834 | . | -5.1 | O=C(Nc1cccc(Cl)c1)Nc1ccc(Cl)cn1
. | . | . | . | 0.0 | -3.9% | 0.688 | . | -8.0 | Cc1nc2nc(SCC(=O)N3CCOCC3)nn2c(C)c1Cc1c(F)cccc1Cl
i | -0.9 | -3.9 | -3.8 | . | . | . | 1.7 | . | C[C@@H]1CCCCO[C@@H](CN(C)S(=O)(=O)c2cn(C)cn2)[C@@H](C)CN([C@@H](C)CO)C(=O)c2cc(NC(=O)Nc3cccc4ccccc34)ccc2O1
i | -1.2 | 4.2 | -4.9 | . | . | . | -3.0 | . | C[C@@H]1CCCCO[C@H](CN(C)C(=O)Nc2ccc(C(F)(F)F)cc2)[C@H](C)CN([C@H](C)CO)C(=O)c2cc(NC(=O)Nc3ccccc3)ccc2O1
i | 3.9 | 10.8 | -3.4 | 1.7 | 2.2% | 0.678 | -0.3 | 2.3 | COc1cccc(NC(=S)N(CCC(C)C)C(C)c2ccncc2)c1 (stereo not drawn)
i | -0.2 | -2.3 | 3.0 | 1.3 | -2.4% | 0.682 | 3.6 | -13.1 | CCCc1ncc(CN2CCCCC2C(=O)Nc2ccc(Oc3ccccc3)nc2)cn1 (stereo not drawn)
i | -10.8 | -11.5 | -10.8 | 3.4 | . | 0.602 | -2.7 | . | Oc1ccc(Cl)cc1CNCc1ccc(F)c(F)c1
i | 4.1 | 5.7 | 0.1 | 0.7 | ? | 0.692 | -13.2 | -40.4 | C=CCN(CC=C)CCOc1ccccc1
. | . | . | . | 1.8 | -0.6% | 0.711 | . | . | Cc1noc(C)c1COc1ccc(C(=O)OCC(=O)NC(=O)C2COc3ccccc3O2)cc1 (stereo not drawn)

Not a retest: an excerpt of the list.
FGF22 binding | rRNA inh HTS | rRNA inh HTS OD600 | rRNA inh HTS RFP | HNF4A DNA FP | Vif A3G | Ecoli growth | AF4-AF9 inh | ALR inh | SMILES
i | -10.8 | -11.5 | -10.8 | 3.4 | . | 0.602 | -2.7 | . | Oc1ccc(Cl)cc1CNCc1ccc(F)c(F)c1
i | 4.1 | 5.7 | 0.1 | 0.7 | ? | 0.692 | -13.2 | -40.4 | C=CCN(CC=C)CCOc1ccccc1
. | . | . | . | 1.8 | -0.6% | 0.711 | . | . | Cc1noc(C)c1COc1ccc(C(=O)OCC(=O)NC(=O)C2COc3ccccc3O2)cc1 (stereo not drawn)

Additional compounds.
FGF22 binding | rRNA inh HTS | rRNA inh HTS OD600 | rRNA inh HTS RFP | HNF4A DNA FP | Vif A3G | Ecoli growth | AF4-AF9 inh | ALR inh | SMILES
i | 15.0 | 9.5 | 0.8 | 6.8 | 16.9% | . | 2.9 | -24.8 | C/C(=N\Nc1cccc2cccnc12)c1ccc(N)cc1
i | 10.0 | 12.4 | -2.7 | 0.8 | . | 0.705 | ? | . | O=C(NNC(=O)c1ccccc1-n1cccc1)c1cncc(Br)c1
i | 6.9 | -4.1 | 0.6 | 1.6 | -4.3% | 0.595 | -2.0 | -5.5 | CC(=O)Nc1cccc(Oc2ccc3c(c2)C(=O)NC3=O)c1
i | -0.3 | 6.0 | -3.4 | . | . | . | 1.4 | . | Cc1ccc(S(=O)(=O)N(C)C[C@H]2Oc3c(NC(=O)C4CCOCC4)cccc3C(=O)N([C@@H](C)CO)C[C@H]2C)cc1
. | . | . | . | -1.1 | 3.6% | 0.667 | . | -16.0 | COc1ccc(S(=O)(=O)N2CCCCCC2)cc1
. | . | . | . | 0.0 | -1.5% | 0.703 | . | -0.5 | CCn1nnnc1Oc1ccc(Cl)cc1
. | . | . | . | 5.0 | 13.6% | 0.644 | . | 90.4* | CCOC(=O)N1CCN(c2cc3[nH]c(=S)[nH]c3cc2F)CC1
i | -8.3 | -0.3 | -7.2 | 0.8 | -8.4% | 0.647 | -0.3 | 1.2 | O=C(/C=C/c1cccs1)Nc1cccnc1
i | 4.4 | 9.1 | -1.9 | -2.6 | -5.4% | 0.772 | -0.3 | -1.2 | COc1ccc(CNC(=O)C2CCC(CNS(=O)(=O)c3cccc4nsnc34)CC2)cc1 (stereo not drawn)
i | -2.8 | 6.7 | -3.2 | 0.1 | 29.6% | 0.711 | -0.1 | -2.3 | S=C(NC1CCCCC1)N1CCOCC1
. | . | . | . | 5.6 | -0.1% | 0.672 | . | -15.1 | CC(C)(C)SCCNS(=O)(=O)c1ccc(F)cc1
i | 6.1 | 2.4 | -2.2 | -1.2 | 6.3% | 0.646 | 0.2 | . | O=c1c(Cc2ccc(Cl)cc2Cl)c(O)ccn1CCCN1CCOCC1
. | . | . | . | 0.5 | 4.3% | 0.794 | . | 1.9 | COC(=O)c1c(NC(=O)CSc2nnnn2-c2ccccc2)sc2c1CCCC2
i | 0.6 | 6.2 | -3.5 | . | . | . | -0.4 | . | CCC(=O)N(C)C[C@H]1Oc2cc(C#CC(C)C)ccc2S(=O)(=O)N([C@H](C)CO)C[C@H]1C
i | -29.3* | -22.8* | 1.0* | -2.1 | . | 0.67 | -3.5 | -2.1 | O=C(Nc1ccc(S(=O)(=O)Nc2nccs2)cc1)c1cnc(Cl)c(Cl)c1
. | . | . | . | 1.8 | . | 0.717 | . | 92.1* | Cc1ccc(NCc2nnc(SCC(=O)N3CCCCC3)n2CC2CCCO2)c(C)c1 (stereo not drawn)
. | 2.4 | -0.7 | -1.9 | -5.6 | 0.9% | 0.719 | . | 28.0 | O=C(COc1ccccc1)Nc1nonc1NC(=O)COc1ccccc1
i | 11.9 | 21.1 | 2.8 | . | . | . | -3.2 | . | CCOC(=O)C1=C(C(=O)OCC)C2N(Cc3ccc(C#N)cc3)c3ccccc3[C@@]23C[C@@H](C(=O)OC)N(S(=O)(=O)c2ccccc2C)C3=N1 (stereo partly drawn)
. | . | . | . | -1.8 | -5.8% | 0.653 | . | -3.5 | NC(=O)c1cnn2c(C(F)(F)F)cc(-c3ccc(F)cc3)nc12
i | 0.7 | -38.9 | 30.5 | . | . | . | 16.6 | . | COc1ccc2c3c([nH]c2c1)[C@H](CO)N(C(=O)C1CCCC1)CC31CCN(Cc2cccc(F)c2)CC1
i | 0.8 | -2.7 | -1.5 | -0.1 | -0.3% | 0.714 | 2.6 | -10.9 | N#CCCCn1c(O)c(N=NC(=O)C(O)c2ccccc2)c2ccccc21 (stereo not drawn)
. | . | . | . | -1.1 | 3.1% | 0.723 | . | -2.1 | CCOc1ncccc1C(=O)Nc1ccc(Cl)cc1
i | -1.6 | -4.0 | -1.4 | -3.6 | 8.3% | 0.713 | -6.4 | -4.3 | O=C(COC(=O)Cc1ccccc1[N+](=O)[O-])NCc1ccc(Cl)cc1
i | 7.4 | 16.6 | -1.7 | -1.6 | . | 0.679 | -1.3 | -11.6 | Nc1cc(=O)[nH]c(SCC(=O)Nc2cccnc2Cl)n1

Entries of single compounds from above. Order of screens: FGF22 binding | rRNA inh HTS | rRNA inh HTS OD600 | rRNA inh HTS RFP | HNF4A DNA FP | Vif A3G | Ecoli growth | AF4-AF9 inh | ALR inh
N#CCCCn1c(O)c(N=NC(=O)C(O)c2ccccc2)c2ccccc21 (stereo not drawn) is listed as i | 0.8 | -2.7 | -1.5 | -0.1 | -0.3% | 0.714 | 2.6 | -10.9
CC(C)(C)SCCNS(=O)(=O)c1ccc(F)cc1 is listed as . | . | . | . | 5.6 | -0.1% | 0.672 | . | -15.1
CC(=O)Nc1cccc(Oc2ccc3c(c2)C(=O)NC3=O)c1 is listed as i | 6.9 | -4.1 | 0.6 | 1.6 | -4.3% | 0.595 | -2.0 | -5.5
S=C(NC1CCCCC1)N1CCOCC1 is listed as i | -2.8 | 6.7 | -3.2 | 0.1 | 29.6% | 0.711 | -0.1 | -2.3

Assay outcomes: PubChem, several laboratories
